Compound activity (PubChem BioAssay)
Vaccinia mCherry: inhibitors of vaccinia virus infection (mCherry reporter signal); 0.63% of 310,000 active; Vaccinia virus mCherry reporter infection, fluorescence; about a quarter of the inactives have no number; Potency, µM (highest dose often 36.5 µM), for the others: at the top dose activity change, negative = inhibition, actives largely listed as inhibitors; active = well fitted inhibition curve with a large enough effect; inconclusive = small, poorly fitted or top-dose-only effect; inactive = no such curve, though single readings can be large or run the other way; tested in A549 cells; note: nearly all actives have a fitted effect of over 35% in size; inactives centre near -10
Vaccinia Venus: inhibitors of vaccinia virus (Venus reporter); Vaccinia virus Venus reporter expression, fluorescence; Potency, µM (doses to about 36.5 µM), for the others: top-dose activity change, negative = inhibition, most hits filed as inhibitors; 0.46% of 330,000 active; active means well fitted inhibition curve with a large enough effect; inconclusive means small, poorly fitted or top-dose-only effect; inactive means no such curve, though single readings can be large or run the other way; tested in A549 cells; note: nearly all actives have a fitted effect of over 30% in size; inactives centre near -10
The depositor's hits bear a star; i = inactive; ? = inconclusive; . = not tested or not shown; [ ] = remark or other dose. % is set by controls: 0 for no effect and ±100 for the full control effect; potency is the fitted concentration of half-maximal effect.

SMILES	Vaccinia mCherry	Vaccinia Venus
CC(C)NC(=O)C1(C)CCCN1C(=O)c1ccc2c(c1)C(C)(C)CCC2(C)C (stereo not drawn)	i	-12%
Cc1cc(C)n(-c2ccc(NC(=O)C3CCN(Cc4cc(C)c(C)o4)CC3)cc2)n1	-2%	-10%
COc1cc(C2c3c(n[nH]c3C)C(=O)N2c2ccc(Br)cc2)ccc1O (stereo not drawn)	-8%	-8%
O=C(C1CCCCC1)N(CCN1CCN(c2ccccc2CO)CC1)c1ccccn1	-15%	-17%
CN1C(=O)c2ccc(NC(=S)NC(=O)C(C)(C)C)cc2C1=O	-7%	-3%
Cc1ccc(CN(Cc2ccco2)S(=O)(=O)c2ccc(S(=O)(=O)NCC3CCCO3)cc2)cc1 (stereo not drawn)	i	-7%
Cc1ccc(Nc2nnc(SCC(=O)c3cc4ccccc4o3)s2)cc1C	-19%	2%
CCC(=O)Nc1ccc(Nc2nc(C)c([N+](=O)[O-])c(Nc3ccc(NC(=O)CC)cc3)n2)cc1	-17%	-21%
Cc1cc(C)cc(OCC(=O)NNC(=O)CCN2C(=O)c3ccccc3C2=O)c1	-18%	-8%
CN(C(=O)COc1ccc(S(=O)(=O)N2CCOCC2)cc1[N+](=O)[O-])C1CCS(=O)(=O)C1 (stereo not drawn)	-20%	-1%
O=C(O)c1ccc2c(c1Nc1ccccc1)C(=O)c1ccccc1C2=O	-21%	-5%
O=S(=O)(c1ccccc1Cl)N1CCC(O)(c2ccc3c(c2)OCO3)CC1	-10%	-12%
Cc1oc2ccc(O)c(CN3CCN(C)CC3)c2c1C(=O)Nc1ccccc1	-5%	-1%
Cc1nnc(SCCN2CCOCC2)n1C	-5%	2%
CCOC(=O)C1(C)CCN1C(=O)c1cc(C)n(C(C)(C)C)n1 (stereo not drawn)	9%	5%
O=C(COc1ccccc1C(=O)OCC(=O)Nc1cccc2ccccc12)Nc1ccc(Br)cc1	-3%	-23%
CCn1nnc2cc(C(=O)Nc3cccc(C)c3C)ccc21	-20%	-11%
Cc1ccc(-c2nnc(Nc3cccc(O)c3)c3ccccc23)cc1S(=O)(=O)N1CCCCC1	?	?
COC(=O)c1ccc(NC(=S)Nc2ccccn2)cc1	.	-22%
COc1ccc2cnn(CCOc3ccccc3)c(=O)c2c1OC	.	-36%
COc1ccc(CC(=O)Nc2ccc(-c3noc(-c4cc(OC)c(OC)c(OC)c4)n3)cc2)cc1	.	-13%
CC1(C)CN(c2ccc(Br)cc2)C(=O)[C@H]1CC(=O)Nc1ccccc1	-21%	-27%
CC(=O)C1=CCC(c2ccccc2)N(S(C)(=O)=O)C1 (stereo not drawn)	2%	-2%
COCCn1nnnc1C(C(C)C)N1CCN(C(=O)c2ccco2)CC1 (stereo not drawn)	.	-28%
O=C(NNC(=O)C1CC1)c1ccc(-c2ccccc2)cc1	-7%	-10%
CCc1ccc(C2=NN(CCC(=O)NC(C)c3ccc4c(c3)OCCO4)C(=O)CC2)cc1 (stereo not drawn)	-12%	-29%
CCCNC(=O)c1ccc2c(c1)sc1nc(-c3ccc(C)cc3)cn12	?	?
CCOc1ccc(NC(=O)CN(C)C(=O)c2ccccc2CCc2ccccc2)cc1OCC	-21%	-23%
O=C(COC(=O)/C=C/c1cccc(Cl)c1)NCCC1=CCCCC1	2%	5%
O=C1C(NS(=O)(=O)c2cccs2)=C(N2CCOCC2)C(=O)c2ccccc21	?	-2%
Cc1ccnc2nc(C(=O)OCCOc3ccccc3)nn12	-17%	-4%
Cn1c(=O)n(CCC(=O)O)c2ccccc21	-21%	-18%
Cc1cc(C(=O)N2CCCC(N3CCN(c4cccc(Cl)c4)CC3)C2)nn1C (stereo not drawn)	-14%	-14%
O=C(COC(=O)c1nc(Cl)ccc1Cl)NCc1ccc(Cl)cc1Cl	-4%	-3%
O=Cc1ccc(-n2nncc2-c2ccc([N+](=O)[O-])cc2)cc1	-3%	0%
O=C(CNC(=O)N1CC(=O)Nc2ccccc21)NCc1ccc(F)cc1	-15%	28%
Cc1ccc(NC(=O)/C=C/c2ccc(Cl)cc2)nc1	-19%	-15%
CCCCC[C@H]1CCCCC[C@H](O)C[C@@H](O)[C@H](O)/C=C/C(=O)O1	-6%	-20%
CCc1nc2ccc(C(=O)NCCOc3ccc(OC)cc3)cn2c1N(CCC(C)C)CCN(C)C	i	-18%
O=C(Nc1cc(Cl)cc(Cl)c1)c1cccc(OC(F)F)c1	?	?
Cc1nc(Cn2c3ccc(NC(=S)NC4CCCCC4)cc3c(=O)n2C)cs1	-12%	-26%
O=C(CN(Cc1ccccc1Cl)C(=O)c1ccc(CN2CCOCC2)o1)NCc1ccccc1	-23%	-13%
Cc1sc2ncn(CC(=O)Nc3ccc(F)cc3F)c(=O)c2c1S(=O)(=O)N1CCC(C)CC1	-7%	-12%
Cc1cccc(C(=O)N2c3ccccc3C(=O)OC2c2ccc3c(c2)OCO3)c1 (stereo not drawn)	i	-7%
Cn1cccc1C(=O)OCC(=O)Nc1ccc2c(c1)OCCO2	-6%	-7%
COc1ccccc1CNS(=O)(=O)c1ccc2c(c1)NC(=O)C(C)S2 (stereo not drawn)	-3%	-9%
CC(C1CC1)N(C(=O)c1ccccc1[N+](=O)[O-])c1ccccc1 (stereo not drawn)	-17%	-19%
N#CC1=C(N)NC(SCC(=O)Nc2ccccc2)=C(C#N)C12CCCC2	.	-23%
COC(=O)c1ccccc1NC(=O)c1c(C)oc2ncn(C)c(=O)c12	-3%	-3%
Cc1ccc2nc(NCc3ccccc3)[nH]c2c1	?	?
CCOc1ccccc1NC(=O)CCCNC(=O)c1ccc(Cl)cc1	-10%	-3%
CCc1ccccc1NC(=O)COc1ccc2c(=O)c(Oc3cc(C)ccc3C)coc2c1	-22%	-17%
O=C(Nc1cccc2c1N(C(=O)c1ccco1)CCC2)c1ccco1	i	-11%
CC(C)C(NC(=O)c1c(F)cccc1F)C(=O)OCN1C(=O)c2ccccc2C1=O (stereo not drawn)	-13%	-6%
COc1cc(/C=C(\C#N)c2nc3ccccc3[nH]2)cc(Br)c1OCc1ccc(F)cc1	-16%	-1%
O=C(COc1ccc2c(c1)oc(=O)c1ccccc12)NCC1CCC(C(=O)O)CC1 (stereo not drawn)	-8%	-8%
Cc1ccccc1CN1CCc2c(OCC(=O)N3CCCCC3)cccc2C1=O	-14%	-8%
O=S(=O)(Nc1ccc(-c2nc3cccnc3s2)cc1)c1ccc(Cl)s1	-24%	-4%
NC(=O)C1(N2CCCCC2)CCN(C(=O)CCCn2c(=O)[nH]c3ccsc3c2=O)CC1	15%	1%
CC(=O)c1cccc(NC(=S)NC(=O)c2ccccc2C)c1	-12%	-7%

The final 2 entries of the section above come first, to join the parts:
SMILES	Vaccinia mCherry	Vaccinia Venus
NC(=O)C1(N2CCCCC2)CCN(C(=O)CCCn2c(=O)[nH]c3ccsc3c2=O)CC1	15%	1%
CC(=O)c1cccc(NC(=S)NC(=O)c2ccccc2C)c1	-12%	-7%
Cn1cc(S(=O)(=O)N2CCNCC2)cc1C(N)=O	i	-6%
C=CCN(c1ccccc1C(=O)NCC(=O)O)S(=O)(=O)c1ccccc1C	-10%	0%
Cc1cccc(C(=O)Nc2nc3nc(-c4ccccc4)cc(=O)n3[nH]2)c1	-3%	-5%
COc1ccc2c(C(=O)CN(C)C3CCCCC3)c[nH]c2c1	.	-3%
COc1cc(C2C(C(=O)Nc3ccc(C)cc3C)=C(C)Nc3nc4ccccc4n32)cc(OC)c1OC (stereo not drawn)	-20%	-8%
COCCNC(=O)CN(C(=O)c1ccc(N2CCCC2)nc1)c1ccccc1	-4%	-21%
CCCCC(CC)COC(=O)C(C#N)=C(c1ccccc1)c1ccccc1 (stereo not drawn)	-1%	-13%
CCOC(=O)c1cnc2cc(C)nn2c1C	.	-1%
CCCC(=O)c1ccc(N2CCCC2)c(F)c1	-14%	-4%
O=C(CCN1C(=O)/C(=C/c2ccco2)SC1=S)Nc1ccc(C(=O)O)c(O)c1	-5%	67%[activator]
C#CCOCCOCCOCCNc1nc(N2CCN(C(=O)CCCCCCCCCCNC(=O)[C@@H](CCSC)n3cc(CCO)nn3)CC2)nc(N2CCN(C(=O)CCCCCCCCCCNC(=O)[C@H](CO)n3cc(CCCCCN)nn3)CC2)n1	i	?
O=C(COC(=O)Cc1ccccc1)NC12CC3CC(CC(C3)C1)C2	-17%	-14%
O=C(c1ccc(-n2c(SCc3cc(F)ccc3F)nc3ccccc3c2=O)cc1)N1CCOCC1	-5%	-17%
CCN1CCN(P2(=O)C=C(c3ccccc3)OC(c3ccccc3)=C2)CC1	-9%	-22%
CCC1CCCCN1S(=O)(=O)c1ccccc1 (stereo not drawn)	i	-9%
C=C(CCO)C1=CCN(S(=O)(=O)C(C)(C)C)[C@@H]1CCO	i	-14%
CCOC(=O)[C@H]1[C@H]2COc3ccccc3[C@@H]2N2C(=O)c3cc(C)ccc3NC(=O)[C@@]12C	-6%	-6%
COc1ccc(C(=O)CC(=O)c2ccc(C)cc2)c(O)c1	-23%	-19%
COc1ccc(OC)c(NC(=O)CSc2cn(CC(=O)N3CCOCC3)c3ccccc23)c1	-7%	-2%
Cc1nc(NC(=O)CN2CC(C)OC(C)C2)sc1C(=O)N(C)C (stereo not drawn)	-28%	-14%

Compound profiles (already shown). Screens in order: Vaccinia mCherry	Vaccinia Venus
Cc1nc(NC(=O)CN2CC(C)OC(C)C2)sc1C(=O)N(C)C (stereo not drawn) reads -28%	-14%
O=C(COC(=O)Cc1ccccc1)NC12CC3CC(CC(C3)C1)C2 reads -17%	-14%

The results go on:
SMILES	Vaccinia mCherry	Vaccinia Venus
O=C1NC(=O)C(CC(=O)N(Cc2ccco2)C2(C(=O)NC3CCCCC3)CCCCC2)N1 (stereo not drawn)	-12%	-3%
NC(=O)CC(NC(=O)c1ccc(Br)cc1)c1ccc(NCCc2ccc(F)cc2)c([N+](=O)[O-])c1 (stereo not drawn)	-7%	-18%
C[C@@]12C(=O)Nc3ccccc3C(=O)N1[C@H]1c3cc(Cl)ccc3OC[C@@H]1[C@@H]2c1ccccc1	?	-23%
O=C(CN(c1cccc(C(F)(F)F)c1)S(=O)(=O)c1ccc(Cl)c([N+](=O)[O-])c1)NCc1ccc(F)cc1	-29%	?
Cc1cc2ncn(C(=O)c3c(-c4ccccc4Cl)noc3C)c2cc1C	i	?
Cc1c(C(=O)N2CCCCC2c2cccnc2)sc2ncnc(NCc3cccs3)c12 (stereo not drawn)	-6%	-28%
COc1cccc(C(C(=O)NC(C)(C)C)N(C(=O)CCC(=O)Nc2cc(C)on2)C(C)(C)C)c1OC (stereo not drawn)	-8%	-1%
CCCCCC(O)(CCCCC)C(=O)NNc1ccccc1	.	-23%
Cc1nc(-c2ccccc2)nn1-c1ccc([N+](=O)[O-])cc1	i	-9%
CCOc1ccc(CNC(=O)CN2C(=O)CCn3nc(-c4cn(C)c5ccccc45)cc32)cc1OC	-10%	-10%
CC(=O)/C(=N/Nc1ccc(Br)cc1)N1CCCc2ccccc21	-27%	-16%
NCCN1CCN(S(=O)(=O)c2ccc([N+](=O)[O-])cc2)C=C1c1ccc(Cl)cc1	-29%	-23%
COc1cccc(CNC(=O)c2cc3c(=O)n(Cc4cccnc4)ccc3nc2C)c1	-13%	1%
O=C(O)CCn1cc(C2CC(c3ccccc3)=NN2c2ccccc2)c(-c2ccccc2)n1 (stereo not drawn)	-14%	-10%
O=C(NC1CCCCC1)C(c1ccccc1F)N(Cc1ccco1)C(=O)Cn1nnc2ccccc21 (stereo not drawn)	.	-12%
CN(/N=C/c1ccc2c(c1)OCO2)c1nc(N2CCOCC2)nc(N2CCOCC2)n1	-7%	-11%
Cc1cc(NC2=CC(=O)C(=O)c3ccccc32)no1	?	?
COc1cccc(C(=O)NC(c2ccc(Cl)cc2)c2cc(Cl)c3cccnc3c2O)c1 (stereo not drawn)	10µM*	?
CCC(=O)N1c2ccc(S(=O)(=O)NCCc3ccc(C)cc3)cc2CC1C (stereo not drawn)	-8%	-9%
NC(=O)c1nsc(C(=O)N(c2ccccc2)C(C(=O)NCC2CCCO2)c2ccc3ncccc3c2)c1N (stereo not drawn)	2%	-7%

Structures from the list above that contain a nitro group on carbon, in the order listed:
SMILES	Vaccinia mCherry	Vaccinia Venus
CCC(=O)Nc1ccc(Nc2nc(C)c([N+](=O)[O-])c(Nc3ccc(NC(=O)CC)cc3)n2)cc1	-17%	-21%
CN(C(=O)COc1ccc(S(=O)(=O)N2CCOCC2)cc1[N+](=O)[O-])C1CCS(=O)(=O)C1 (stereo not drawn)	-20%	-1%
O=Cc1ccc(-n2nncc2-c2ccc([N+](=O)[O-])cc2)cc1	-3%	0%
CC(C1CC1)N(C(=O)c1ccccc1[N+](=O)[O-])c1ccccc1 (stereo not drawn)	-17%	-19%
NC(=O)CC(NC(=O)c1ccc(Br)cc1)c1ccc(NCCc2ccc(F)cc2)c([N+](=O)[O-])c1 (stereo not drawn)	-7%	-18%
O=C(CN(c1cccc(C(F)(F)F)c1)S(=O)(=O)c1ccc(Cl)c([N+](=O)[O-])c1)NCc1ccc(F)cc1	-29%	?
Cc1nc(-c2ccccc2)nn1-c1ccc([N+](=O)[O-])cc1	i	-9%
NCCN1CCN(S(=O)(=O)c2ccc([N+](=O)[O-])cc2)C=C1c1ccc(Cl)cc1	-29%	-23%

(more compounds)
SMILES	Vaccinia mCherry	Vaccinia Venus
CSc1ccc(S(=O)(=O)N2CCCC2)cc1	.	-8%
Cc1ncc(CSc2ccc(Cl)cc2)c(CO)c1O	-21%	-18%
CCOC(=O)C(C)Sc1nc2c(c(-c3cccs3)c1C#N)CCC2 (stereo not drawn)	i	3%
C/C(=N\NC(=O)c1ccco1)c1cccc2ccccc12	14%	-7%
CC12CCC(=O)N1C(C(=O)Nc1nc(-c3cc(F)ccc3F)cs1)CS2 (stereo not drawn)	-13%	-3%
COc1cc2nc(N3CCCN(C)CC3)nc(N(C)C)c2cc1OC	-26%	-21%
CCOc1ccc(S(=O)(=O)N2CCC(C(=O)NC3CCCC3)CC2)cc1	-21%	-15%
